# Screens (PubChem BioAssay)
# GLA inh pH 4.5 = inhibitors of human alpha-galactosidase A at pH 4.5; purified enzyme, 4-MU-alpha-Gal fluorescence, pH 4.5; activity change, negative = inhibition, % at 105 µM; 230,000 tested, under 10 active; AID 1467; inconclusive = small, poorly fitted or top-dose-only inhibition, or a rising curve; inactive = flat fitted curve, though single readings scatter; no compound was filed as active;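 further: 0% = full activity with enzyme and -100% = basal without enzyme; dose as in the result columns while the protocol names 77 µM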
# miR-21 FLuc = miR-21 reporter, rising signal. HeLa miR-21 FLuc reporter, luciferase, 48 h. Potency, µM (top dose mostly 38.3 µM), for the others: top-dose reporter change, positive = more light. 340,000 tested, under 10 active. AID 2288; active = well fitted rising curve with a large enough effect; inconclusive = small, poorly fitted or top-dose-only effect; inactive = no such curve, though single readings can be large or run the other way;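 further: % of control where 0% means no effect; miR-21 action dims this reporter so a rising signal means less miR-21 action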
#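 Using DMEM plus 10% FBS, HeLa miR-21-FLuc cells are incubated with test compounds (final up to about 40uM) for 48 hours; firefly luciferase signal is then imaged following reagent-mediated lysis.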
# Rango release inh = inhibitors of RanGTP-induced Rango-importin beta complex dissociation | O95149+P62826 | Biochemical FRET Rango-importin beta, RanGTP-induced dissociation | Potency, µM (doses to about 46.1 µM), inactives show top-dose activity change, negative = inhibition | hit rate 0.071% among 340,000 | AID 540253; active means falling FRET ratio curve, often poorly fitted, with flat reads before Ran was added; inconclusive means other falling curves, or compound fluorescence or quenching; inactive means flat or rising ratio curve;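 further: potency means the concentration at half of the fitted maximal effect; % of control where 0% means no effect; nearly all actives have a fitted effect of over 45% in size; -100% = wells without RanGTP and RCC1; the record marks most hits as doubtful in a second field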
#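 Recombinant Rango FRET biosensor (EYFP–snurportin 1 IBB–cerulean CFP10) at 0.1 uM premixed with 0.25 uM importin beta in PBS, 1 mM DTT, 0.02% Tween-20, 0.1% BSA. Compound added 5 min; RanGTP-RCC1 (0.6 uM Ran, 2 mM GTP, 0.2 uM RCC1) then triggers release, read at 45 min.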
# Rango-impB inh = Rango-importin beta binding inhibition; Rango CFP/YFP FRET sensor + importin beta, 45 min; Potency, µM (titrated, usually from 92.2 µM), for inactives: at the highest dose inhibition of complex formation; hit rate 0.031% among 340,000; AID 540263; active = rising FRET ratio curve, often small or poorly fitted; inconclusive = mostly compound fluorescence or quenching in the first reads; inactive = flat curves in all reads;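 further: potency means the concentration at half of the fitted maximal effect; 0% = DMSO wells and 100% = buffer wells lacking importin beta; nearly all actives have a fitted effect of over 15% in size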
# Target sequence (Q14974 whole entry, looked up): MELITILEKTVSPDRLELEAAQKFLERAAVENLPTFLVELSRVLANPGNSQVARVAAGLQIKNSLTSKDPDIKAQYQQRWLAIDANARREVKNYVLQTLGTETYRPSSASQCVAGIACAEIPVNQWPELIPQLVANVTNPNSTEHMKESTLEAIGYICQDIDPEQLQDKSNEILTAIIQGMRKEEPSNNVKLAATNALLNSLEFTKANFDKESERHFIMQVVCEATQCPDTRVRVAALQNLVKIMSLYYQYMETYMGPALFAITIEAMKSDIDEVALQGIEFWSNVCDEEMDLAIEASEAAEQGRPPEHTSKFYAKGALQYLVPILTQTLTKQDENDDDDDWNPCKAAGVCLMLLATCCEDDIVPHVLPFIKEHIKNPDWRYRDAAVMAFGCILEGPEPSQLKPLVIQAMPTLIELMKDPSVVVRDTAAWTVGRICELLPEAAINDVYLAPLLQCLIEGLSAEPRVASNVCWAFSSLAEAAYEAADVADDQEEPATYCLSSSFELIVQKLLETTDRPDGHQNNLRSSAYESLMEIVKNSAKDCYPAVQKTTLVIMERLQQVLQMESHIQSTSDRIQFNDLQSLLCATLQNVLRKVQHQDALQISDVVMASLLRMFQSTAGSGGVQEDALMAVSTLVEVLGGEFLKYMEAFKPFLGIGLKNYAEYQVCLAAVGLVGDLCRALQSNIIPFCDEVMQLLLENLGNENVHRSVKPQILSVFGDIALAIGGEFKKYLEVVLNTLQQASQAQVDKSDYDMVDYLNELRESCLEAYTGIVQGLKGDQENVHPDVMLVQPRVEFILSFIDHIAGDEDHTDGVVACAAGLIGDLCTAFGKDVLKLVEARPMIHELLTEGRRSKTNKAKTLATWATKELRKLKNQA
#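 FRET biosensor Rango (snurportin 1 IBB between N-terminal EYFP and C-terminal Cerulean), 50 nM in PBS/1 mM DTT/0.02% Tween-20/0.1% BSA, preincubated 5 min RT with compound; 0.125 microM importin beta added, 45 min RT, CFP/YFP FRET ratio read.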
# * = called active by the depositor; ? = inconclusive; . = not tested or not shown; & = joins results of further samples. A portion of the library; rates above refer to the full screens.
GLA inh pH 4.5	miR-21 FLuc	Rango release inh	Rango-impB inh	SMILES
0	-5%	-10%	-0.9%	CCc1c(C)nc2ncnn2c1N1CCCC(C(=O)NCc2cccs2)C1 (stereo not drawn)
-12	-19%	-9%	0.8%	CC(C)Oc1ccc(/C(O)=C2/C(=O)C(=O)N(CCN3CCOCC3)C2c2ccccc2)cc1 (stereo not drawn)
3	4%	-14%	-1.5%	COC(=O)C1=C(C)NC(=O)NC1c1ccsc1 (stereo not drawn)
4	2%	?	?	CCn1nc(NC(=O)c2cccnc2)c2cc3cccc(C)c3nc21
.	3%	-4%	-4.3%	COCCN1CC(=O)N2C(c3cccc(C)c3)c3[nH]c4ccccc4c3C[C@H]2C1=O (stereo partly drawn)
.	0%&-8%	-9%	-0.2%	O=S(=O)(c1ccc(-c2cnc(C3CC3)o2)cc1)N1CCN(c2ccccc2)CC1
-6	-2%	4%	0.6%	COC(=O)c1ccccc1NC(=O)c1nc2nc(C)cc(C)n2n1
.	?	-8%	1.8%	CC(C)NC(=S)NC(c1ccccc1)(c1ccccc1)c1ccccc1
7	-6%	-4%	5.6%	CC(Nc1n[nH]c(=S)[nH]c1=O)C(=O)OCc1ccccc1 (stereo not drawn)
-12	-1%	?	2.1%	CCOC(=O)N1CCN(S(=O)(=O)c2ccc3c(c2)CCN3C(=O)C2CCC2)CC1
20	-1%	0%	-2.5%	COc1ccc(-c2nnn(CC(=O)N(CCO)C(C(=O)NC3CCCC3)c3ccc(F)cc3)n2)cc1 (stereo not drawn)
.	-46%	9%	-0.8%	Cn1ccc(C(=O)NC(=S)Nc2ccc([N+](=O)[O-])cc2O)n1
.	.	20%	0.5%	O=C(O)Cc1cccc2ccccc12
.	5%	-7%	-1.3%	C/C(COc1ccccc1)=N\NC(=O)c1nnn(-c2nonc2N)c1CSc1ccccc1
-1	-18%	6%	0.6%	CC12CN3CCN(CC(C3)/C1=N/NC(=O)Nc1ccccc1)C2
5	-2%	-5%	-2.2%	COc1ccc(C(=O)Cn2c(NCCO)nc3ccccc32)cc1
-2	-4%	4%	?	COc1ccc(C2CC(=O)C=C(O)C2)cc1 (stereo not drawn)
.	.	-8%	-1.0%	COc1ccc(C(=O)NC(CCSC)C(=O)NCc2nnc3ccccn23)cc1 (stereo not drawn)
14	-8%	-13%	7.7%	Cc1nc2ccccc2c(=O)n1Nc1cccc(Cl)c1
-2	1%	4%	1.2%	CCOC(=O)C1CCCN(C(=O)c2cccc(S(=O)(=O)N3CCOCC3)c2)C1 (stereo not drawn)
.	-5%	9%	0.0%	Cc1cc(OC(C)C(=O)Nc2cccnc2)ccc1Cl (stereo not drawn)
.	.	-2%	1.4%	O=C(Nc1cc(Cl)ccc1-n1cncn1)c1cn2ccccc2n1
9	-7%	2%	0.3%	Cn1c(=O)c2c(nc(NCc3ccccc3)n2CC(=O)NCc2ccccc2)n(C)c1=O
.	-11%	-7%	-3.2%	CCCSCCCNC(=O)c1ccc(NC(=O)C2=CSCCO2)cc1
4	-1%	-11%	-1.5%	COc1cc(C2NC(=O)NC(C)=C2C(C)=O)cc(OC)c1OC (stereo not drawn)
.	.	2%	-0.4%	CC(=O)Nc1ccc(NC(=O)C(C)OC(=O)CCCOc2ccc(Cl)cc2C)cc1 (stereo not drawn)
.	0%	8%	1.6%	CN(C)C1(CNC(=O)C2CCC(=O)N(Cc3ccc(Cl)cc3)C2)CCCCC1 (stereo not drawn)
4	-2%	1%	-1.4%	Cc1ccccc1NCC(=O)N/N=C/C(Br)=C/c1ccccc1
-10	-20%	-2%	0.3%	O=[N+]([O-])C(=C1Nc2ccccc2N1)C(Cl)=C(Cl)Cl
.	1%	-6%	0.4%	O=C(O)[C@]1(S(=O)(=O)c2ccccc2)C[C@@H]2ON=C(c3cccc(Br)c3)[C@@H]2C1
.	-70%	-7%	0.6%	COc1ccc(NC(=S)N2CCc3ccccc32)cc1OC
-9	1%	-9%	-0.2%	COc1cccc(CC2(CO)CCCN(Cc3cc4ccccc4[nH]3)C2)c1 (stereo not drawn)
3	-32%	3%	-0.2%	O=C(OCC#CCSc1nc2ccccc2s1)c1ccco1
.	-1%	10%	?	COc1ccc(CCNC(=O)c2cnc(Cl)c(Cl)c2)cc1
.	-1%	-1%	0.0%	CCn1cc(CN2CCC(n3nccc3NC(=O)c3cccc(F)c3)CC2)c(C)n1
-11	-2%	5%	3.2%	Cc1ccc(C(=O)NNC(=O)CNc2cccc(Cl)c2)cc1
-9	-2%	?	?	Cc1ccc(S(=O)(=O)c2cc3c(=O)n4ccccc4nc3n(C)c2=N)cc1
-10	6%	12%	-2.9%	CCOC(=O)N1CCN(S(=O)(=O)c2ccc(C)cc2)C1
.	-13%	1%	-2.9%	Cc1ccc(S(=O)(=O)Oc2ccc3ccc(O)cc3c2)cc1
-1	-2%	3%	1.7%	CC(=O)NC(CCCN1C(=O)c2ccccc2C1=O)c1nnn(C)n1 (stereo not drawn)
.	1%	-11%	4.5%	CC(C)CCNC(=O)C1CCN(S(=O)(=O)c2ccc3nc4c(c(C(=O)O)c3c2)CCCCC4)CC1
-5	-4%	9%	?	COc1cccc(OC)c1OCCOCCn1cnc2ccccc2c1=O
.	12%	4%	-1.2%	CCc1ccccc1-n1ncc(C(=O)Nc2ccccc2OC)c1C
-1	-1%	-1%	-0.1%	COc1ccc(NC(=O)C(c2ccc(C)cc2)N(C)C(=O)c2cnccn2)cc1 (stereo not drawn)
-2	-1%	-5%	1.6%	Cc1ccc(NC(=O)N2CCCn3c(SCC(=O)c4ccccc4)nnc32)cc1
5	-7%	26%	-1.3%	CCCCn1nc2cc(C(=O)NCC3CC3)ccc2c1OCC
-7	0%	22%	0.8%	COc1ccc(-c2csc3ncn(-c4cccc(C)c4)c(=O)c23)cc1OC
10	2%	1%	-1.6%	CC1CCCCN1C(=O)Nc1ccccc1Cl (stereo not drawn)
-5	-10%	3%	0.2%	COc1ccc2nc(SCC(=O)Nc3ccccc3C)[nH]c2c1
11	-4%	2%	2.1%	COc1ccc(CSc2nnc(NC(C)=O)s2)cc1[N+](=O)[O-]
.	.	1%	-3.8%	O=C(CCC1CCCCC1)NCCS(=O)(=O)N1CCN(c2ccc(F)cc2)CC1
-5	-8%	33%	4.8%	CCOC(=O)c1c(C)[nH]sc1=S
.	-15%	-2%	0.2%	Cc1ccc(-n2cnn(-c3ccc([N+](=O)[O-])cc3[N+](=O)[O-])c2=O)cc1
2	-1%	-8%	1.0%	O=C(NCC1CCCO1)C1CCN(S(=O)(=O)c2cccc3nonc23)CC1 (stereo not drawn)
.	.	-6%	-0.3%	CC(C)CC(CO)N1CCN(C(=O)c2ccc(Cl)c(Cl)c2)CCC1=O (stereo not drawn)
.	7%	-5%	3.0%	COc1ccccc1CNC(=O)C1CCN(S(=O)(=O)c2ccc3c(c2)NC(=O)CO3)CC1

# Additional records follow.
GLA inh pH 4.5	miR-21 FLuc	Rango release inh	Rango-impB inh	SMILES
-2	?	1%	?	COCCNC(=S)N(CCc1c(C)[nH]c2ccc(F)cc12)Cc1cccs1
2	-2%	2%	?	Cc1ccc(CC2S/C(=C(/C#N)C(=O)NCc3ccco3)N(c3ccccc3)C2=O)cc1 (stereo not drawn)
-6	-12%	4%	-2.5%	Cc1ccc(NS(=O)(=O)c2ccccc2)c2c1CC(C)(C)O2
-9	-4%	12%	?	CN(C)CCCn1c(NC(=O)C2CCCCC2)nc2ccccc21
-7	-4%	2%	-0.7%	COc1ccc(C2=NOC(C(=O)Nc3ccc(C)cc3)C2)cc1OC (stereo not drawn)
-5	-7%	2%	0.1%	C=CCNC(C(=O)Nc1cccc(OC)c1)c1ccccc1 (stereo not drawn)
-2	-60%	?	?	CCN(CC)c1ccc(/C=N/N2CCOCC2)c(O)c1
.	.	-24%	-1.4%	CC(=O)OC1C([N+]2(C)CCCCC2)C[C@H]2C3CC[C@H]4C[C@H](OC(C)=O)C([N+]5(C)CCCCC5)CC4(C)[C@H]3CCC12C (stereo partly drawn)
.	3%	-8%	-4.1%	O=C(O)c1ccccc1C(=O)NCc1ccc2c(c1)OCO2
.	-46%	1%	-2.6%	COc1cccc(C(=O)NC23CC4CC(CC(C4)C2)C3)c1
.	.	-6%	?	O=C(Nc1nccs1)[C@@H]1CCCN1S(=O)(=O)c1ccc(Cl)cc1
1	-9%	7%	-1.7%	O=C(N/N=C/c1ccc(OC(F)F)cc1OC(F)F)c1ccc(Br)cc1
0	-9%	-1%	-0.3%	Clc1ccc(OCc2nn3c(-c4ccco4)nnc3s2)cc1
.	-8%	3%	0.2%	COc1ccccc1CNC(=O)c1sccc1-c1ccccc1
-6	-16%	8%	-0.1%	O=C1NC2(CCCCC2)Oc2ccccc21
9	-1%	?	?	Cc1c(NC(=O)CN2C(=O)C3C4C=CC(C4)C3C2=O)c(=O)n(-c2ccccc2)n1C (stereo not drawn)

# Retrieved one by one from the list above (4):
GLA inh pH 4.5	miR-21 FLuc	Rango release inh	Rango-impB inh	SMILES
.	-5%	9%	0.0%	Cc1cc(OC(C)C(=O)Nc2cccnc2)ccc1Cl (stereo not drawn)
.	1%	-11%	4.5%	CC(C)CCNC(=O)C1CCN(S(=O)(=O)c2ccc3nc4c(c(C(=O)O)c3c2)CCCCC4)CC1
.	-46%	9%	-0.8%	Cn1ccc(C(=O)NC(=S)Nc2ccc([N+](=O)[O-])cc2O)n1
-12	-1%	?	2.1%	CCOC(=O)N1CCN(S(=O)(=O)c2ccc3c(c2)CCN3C(=O)C2CCC2)CC1

# Of the compounds above, four contain a nitro group on carbon:
GLA inh pH 4.5	miR-21 FLuc	Rango release inh	Rango-impB inh	SMILES
.	-46%	9%	-0.8%	Cn1ccc(C(=O)NC(=S)Nc2ccc([N+](=O)[O-])cc2O)n1
-10	-20%	-2%	0.3%	O=[N+]([O-])C(=C1Nc2ccccc2N1)C(Cl)=C(Cl)Cl
11	-4%	2%	2.1%	COc1ccc(CSc2nnc(NC(C)=O)s2)cc1[N+](=O)[O-]
.	-15%	-2%	0.2%	Cc1ccc(-n2cnn(-c3ccc([N+](=O)[O-])cc3[N+](=O)[O-])c2=O)cc1

# Next part:
GLA inh pH 4.5	miR-21 FLuc	Rango release inh	Rango-impB inh	SMILES
-9	-14%	-5%	0.5%	CCOCC(=O)Nc1sc2c(c1C(=O)OCC)CCCC2
.	.	-10%	-0.2%	Cc1ccc(CN(C)c2ccc(S(=O)(=O)N3CCCC3)cn2)cc1
-20	24%	1%	-0.1%	CC(C)(C)OC(=O)NCCCCCNC(=O)c1[nH]cnc1C(=O)N[C@@H](CCCCNC(=O)OC(C)(C)C)C(=O)OC(C)(C)C
-11	-11%	?	?	COc1ccc(-n2c(O)c(/C=N/NS(=O)(=O)c3ccc(C)c([N+](=O)[O-])c3)c3ccccc3c2=O)cc1OC
.	.	?	?	Cc1c(Cl)c(=O)oc2cc(OCC(=O)N3CCCC(C)C3)ccc12 (stereo not drawn)
1	6%	9%	-0.2%	CN(C1CCS(=O)(=O)C1)S(=O)(=O)c1cccc2nsnc12 (stereo not drawn)
6	-23%	-16%	-5.4%	Cc1ccc(-c2nc3ccccc3s2)cc1S(=O)(=O)N1CCCC1
.	9%	-1%	-4.4%	CCn1c(SCC(=O)Nc2ccc(NC(C)=O)cc2)nc2c([nH]c3ccccc32)c1=O
.	.	17%	-4.8%	NC(=O)C1CCCN(C(=O)CCC(=O)c2cccs2)C1 (stereo not drawn)
6	-1%	12%	3.2%	CC(=O)Nc1ccc(C(=O)N(C)c2ccccc2)cc1
3	2%	-9%	1.1%	Cc1cc(C)nc(SCC(=O)N2CCCCC2)n1
.	1%	-9%	-2.6%	CC(C)(C)C(=O)NC1CC2CCCC(C1)N2C(=O)Nc1ccc(Cl)cc1 (stereo not drawn)
5	-30%	1%	0.0%	OCCCCNCc1ccc(OCc2ccccc2Cl)cc1
-1	5%	0%	-1.1%	CCCCNC(=O)CNC(=S)N(Cc1ccc(C)cc1)Cc1ccco1
.	0%	-8%	-1.2%	COc1ccc(OC)c(CCNC(=O)CN2C(=O)COc3ccc(S(=O)(=O)N4CCOCC4)cc32)c1
-19	15%	-13%	0.4%	COc1cc(C(=O)NC(=S)Nc2cccc(-c3cc4ccccc4oc3=O)c2)cc(OC)c1OC
-4	-4%	1%	1.3%	CCNS(=O)(=O)c1ccc(NC(=O)c2ccccc2OCC)cc1
